Mtb H37Rv: M. tuberculosis H37Rv growth inhibitors, H37Rv strain (AID 1626); actives 0.95% (n = 220,000); one-dose inhibition, % at 10 µM; IC50 in µM for titrated hits; M. tuberculosis H37Rv growth inhibition; higher % means a stronger effect;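 active = confirmed in a dose series; inconclusive = inhibition above 80% but not taken into the dose series; inactive = below 80% or under 30% at every dose of the series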;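 also: bacteria incubated seven days before Alamar blue readout; 0% = bacteria only wells and 100% = bacteria with antibiotic wells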
YopH PTP inh: inhibitors of Yersinia enterocolitica YopH tyrosine phosphatase. inhibition, %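 (about 10 µM by stock and volumes)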. fluorescence Ex485/Em525. actives 0.16% (n = 140,000);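 active = inhibition of 50% or more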;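 also: controls were vehicle for no effect and minimum signal wells for full effect; inactives centre near -20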
RecA intein inh: Mtb RecA intein splicing inhibition; cell-free RecA intein splicing, fluorescence; inhibition, %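 (about 9 µM by stock and volumes)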; AID 2221; actives 0.75% (n = 290,000); P9WHJ3; in the data active = inhibition above about 30%; inconclusive = no clear call, values can overlap the other calls;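 also: 0% = vehicle wells and 100% = reference inhibitor control wells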
Target sequence (P9WHJ3 whole entry, looked up): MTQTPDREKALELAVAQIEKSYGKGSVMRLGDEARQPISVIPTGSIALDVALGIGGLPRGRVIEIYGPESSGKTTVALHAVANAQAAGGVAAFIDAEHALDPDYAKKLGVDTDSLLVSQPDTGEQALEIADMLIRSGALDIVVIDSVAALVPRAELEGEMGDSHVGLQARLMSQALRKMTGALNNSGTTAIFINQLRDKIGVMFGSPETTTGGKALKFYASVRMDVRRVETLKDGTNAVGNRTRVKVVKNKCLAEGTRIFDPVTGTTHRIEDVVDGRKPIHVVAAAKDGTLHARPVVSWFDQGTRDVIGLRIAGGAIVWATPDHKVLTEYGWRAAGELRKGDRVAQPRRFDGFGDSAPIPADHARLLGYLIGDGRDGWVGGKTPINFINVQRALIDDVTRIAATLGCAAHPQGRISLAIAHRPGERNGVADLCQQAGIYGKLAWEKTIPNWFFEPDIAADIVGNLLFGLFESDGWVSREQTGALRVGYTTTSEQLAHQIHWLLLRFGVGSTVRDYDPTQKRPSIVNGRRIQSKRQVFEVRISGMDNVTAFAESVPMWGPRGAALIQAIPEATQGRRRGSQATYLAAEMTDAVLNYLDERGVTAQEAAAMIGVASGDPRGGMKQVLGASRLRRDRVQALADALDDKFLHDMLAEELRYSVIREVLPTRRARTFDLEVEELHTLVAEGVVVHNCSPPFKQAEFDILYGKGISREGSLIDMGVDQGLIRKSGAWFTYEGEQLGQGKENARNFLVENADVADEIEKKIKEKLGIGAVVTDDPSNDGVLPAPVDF
Mtb bLac sens: beta-lactam sensitization of Mtb H37Rv; actives 0.27% (n = 330,000); inhibition, % at 25 µM; M. tuberculosis H37Rv growth with meropenem, percent inhibition; hits of this screen are not shown here;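 active = about 74% or more and at least 40 points above the plate without the antibiotic, then above 30% in a dose series; inconclusive = first-round hits that could not be retested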;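 also: growth measured after seven days incubation then overnight dye step; 0% = bacteria only wells and 100% = bacteria with antibiotic; twin plates without the antibiotic show which effects depend on it; some results filed as inactive read as strong as hits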
Arbovirus inh: arbovirus infection inhibition; arbovirus infection cell-based antiviral screen; actives 0.37% (n = 200,000); inhibition, % at 10 µM;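 active = inhibition from about 30%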;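 also: bluetongue infection of BSR cells; cell survival read as ATP light after 72 h; 0% = infected wells without compound and 100% = uninfected wells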
Arbovirus inh repeat: also measured in Arbovirus inh; calls as there; inhibition, %; measured here: 10K subset replicate screen; many hits read low in the repeat;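 first of two repeat runs on a subset; 0% = infected and 100% = uninfected wells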
An asterisk follows results filed as active; ? = inconclusive; . = not tested or not shown.

SMILES | Mtb H37Rv | YopH PTP inh | RecA intein inh | Mtb bLac sens | Arbovirus inh | others
CC1Cc2ccccc2N1C(=O)CSc1nc(-c2ccco2)cc(C(F)(F)F)n1 (centres undefined) | -6% | -33 | 1.1 | -5 | 2
C=CCN1C(=O)C(CC(=O)Nc2ccccc2)SC1=Nc1ccc(S(N)(=O)=O)cc1 (centres undefined) | -5% | 1 | -1.6 | 2 | 3
CC1CN(C(=O)Nc2ccc(F)cc2F)CC(C)O1 (centres undefined) | . | . | -3.8 | -4 | .
COc1ccc(C(=O)OC2CCN(c3ncc(C(F)(F)F)cc3Cl)CC2)cc1 | -5% | -18 | 5.5 | 12 | -1
CN(Cc1ccccc1)S(=O)(=O)c1ccc(OCC(=O)NCc2ccncc2)cc1 | . | . | -1.1 | -2 | .
S=c1[nH]nc(C2CCCCC2)n1/N=C/c1ccc(Br)cc1 | . | . | 1.8 | 2 | .
Cc1cc(C)nc(N/N=C/c2cc3c(cc2[N+](=O)[O-])OCO3)n1 | -8% | . | 3.0 | -1 | 2
Cc1cc(NC(=O)CSCC(=O)Nc2ccccc2Oc2ccccc2)no1 | . | . | -1.1 | -5 | .
C=CCn1c(=O)/c(=C/c2ccc(O)cc2)s/c1=C(/C#N)c1nnc2n1CCCCC2 | -4% | -15 | . | -2 | -15
CCOC(=O)c1sc(N(Cc2ccccc2)C(=O)CSc2nnc(C3CC3)n2N)nc1C | 5% | -37 | 0.5 | -5 | -4
Nc1ccc(C2(c3ccc(N)cc3)CCCCC2)cc1 | . | . | 4.3 | 2 | 14
CC(C)C(NC(=O)/C=C/c1ccc(F)cc1)C(C)C | -2% | -38 | -0.2 | -4 | 4
CCCCOc1ccccc1N | 5% | -5 | 1.5 | 1 | 8
NCCNCCNCCN | 1% | -26 | -2.3 | -9 | 8
COC(=O)c1oc2ccccc2c1N | -5% | 5 | 0.0 | 3 | 10

The final 2 compounds of the part before come first, to join the parts.
SMILES | Mtb H37Rv | YopH PTP inh | RecA intein inh | Mtb bLac sens | Arbovirus inh | others
NCCNCCNCCN | 1% | -26 | -2.3 | -9 | 8
COC(=O)c1oc2ccccc2c1N | -5% | 5 | 0.0 | 3 | 10
O=C(CCCNS(=O)(=O)c1cccc2nsnc12)NCCc1ccccc1 | -9% | -8 | 1.3 | -4 | 4
CCOC(=O)c1ccc(NC(=O)c2nc[nH]c2C(=O)N[C@@H](CC(C)C)C(=O)OCc2ccccc2)cc1 | -8% | . | -0.5 | 3 | .
Cc1cc[n+](CCc2ccccc2)cc1C | . | . | -3.0 | 3 | .
FC(F)Oc1ccc(NC(=S)NCc2ccco2)cc1Cl | 10% | . | 9.2 | -5 | 8
CCN(C(=O)COC(=O)c1ccc(OCc2c(C)noc2C)cc1)c1ccccc1 | 4% | -20 | 3.0 | 61 | -3
C1=C(c2ccccc2)CCN(c2ncnc3nc[nH]c23)C1 | 2% | -1 | 1.1 | -3 | -26
COc1ccc2cc3c(N)nn(C(=O)c4cccc([N+](=O)[O-])c4)c3nc2c1 | 3% | -25 | -0.5 | 0 | 23
Cc1cc(-c2nnc(CCC(=O)NC(c3ccccc3)c3ccccc3)o2)no1 | 2% | . | -3.8 | -4 | 1
CCc1nnc(NC(=O)CN2CCN(Cc3ccc(F)cc3)CC2)s1 | . | . | 1.2 | -2 | .
O=C1C2C3C=CC(CC3)C2C(=O)N1/N=C/c1c(O)ccc2ccccc12 (centres undefined) | 0% | . | -2.8 | -5 | 7
CCOCCCNC(=O)c1ccc(C2SCC(=O)N2Cc2ccccc2)cc1 (centres undefined) | . | . | -0.3 | -5 | .
Cc1ccc(S(=O)(=O)N(C)C)cc1NC(=O)CCCNC(=O)c1ccc(Cl)cc1 | . | . | 1.9 | -6 | .
COc1ccc(OC)c(NP(=O)(Oc2ccc(Cl)cc2)Oc2ccc(Cl)cc2)c1 | 4% | -9 | -0.5 | -2 | -3
Cc1ccc(OCCn2c(=O)n(C)c3ccccc32)cc1 | 7% | . | . | -6 | -13
CCCS(=O)(=O)N1CCN(S(=O)(=O)c2ccccc2)CC1 | -5% | 4 | -2.6 | 2 | 15

Random excerpt: four entries already listed, in no set order.
SMILES | Mtb H37Rv | YopH PTP inh | RecA intein inh | Mtb bLac sens | Arbovirus inh | others
Cc1cc(C)nc(N/N=C/c2cc3c(cc2[N+](=O)[O-])OCO3)n1 | -8% | . | 3.0 | -1 | 2
Cc1cc(NC(=O)CSCC(=O)Nc2ccccc2Oc2ccccc2)no1 | . | . | -1.1 | -5 | .
C1=C(c2ccccc2)CCN(c2ncnc3nc[nH]c23)C1 | 2% | -1 | 1.1 | -3 | -26
CCOC(=O)c1sc(N(Cc2ccccc2)C(=O)CSc2nnc(C3CC3)n2N)nc1C | 5% | -37 | 0.5 | -5 | -4

Next entries follow.
SMILES | Mtb H37Rv | YopH PTP inh | RecA intein inh | Mtb bLac sens | Arbovirus inh | others
O=[N+]([O-])c1ccc(CSc2nnc(Cc3ccccc3)n2-c2ccc(F)cc2)cc1 | 7% | -18 | 2.0 | -4 | -8
CN(C(=O)CN1C(=O)S/C(=C\c2cccc(Cl)c2)C1=O)C1CCS(=O)(=O)C1 (centres undefined) | . | . | 1.1 | ? | .
CCCn1c2ccccc2c2cnn(CC(=O)NC3CCCCC3C)c(=O)c21 (centres undefined) | . | . | -2.6 | -4 | .
Cc1csc2c(SCC(=O)NNS(=O)(=O)c3cccc(C(F)(F)F)c3)ncnc12 | 3% | . | -2.2 | 6 | .
CCOC(=O)C1(Cc2cccc(Cl)c2)CCCN(C(=O)c2c(CC)noc2C)C1 (centres undefined) | . | . | 8.2 | 0 | .
CCOC(=O)c1c(C)nc2c(c1-c1ccc(OC)c(OC)c1)C(=O)c1ccccc1-2 | -2% | -46 | -3.5 | 10 | -3
CCOC(=O)n1c(=O)n(Cc2cccc(F)c2)c2ccccc21 | -4% | . | -1.8 | 3 | -2
C/C(=N\OCC(=O)Nc1ccc2c(c1)OCCO2)c1ccc2c(c1)OCCO2 | 7% | -15 | 0.2 | 0 | 19
O=S(=O)(c1ccc(F)cc1)N1CCCNCC1 | . | . | -1.4 | 4 | .
CN1Cc2cc(C(=O)c3cc(Cl)cc(CSc4ncccn4)c3O)cnc2NC1=O | 9% | -19 | 5.5 | 56 | -18
Cc1cccc(C(=O)NNC(=O)c2ccccc2[N+](=O)[O-])c1 | . | . | -2.4 | 1 | .
CCOC(=O)C1=C(C)NC(C)=C(C(=O)OCC)C1C(=O)OCC(=O)N(C)C1CCS(=O)(=O)C1 (centres undefined) | -4% | . | -0.8 | 1 | -5
CC(C)CNC(=O)COC(=O)c1ccc(Cl)c(S(N)(=O)=O)c1 | . | -11 | 0.5 | 1 | 3
COc1ccc(N2C(=O)CC(Nc3ccc(N4CCOCC4)cc3)C2=O)c(OC)c1 (centres undefined) | -3% | 33 | 0.4 | 4 | -16
COc1cc2c(cc1OC)C(c1ccc(C)o1)CC(=O)N2 (centres undefined) | -3% | -21 | -7.6 | 2 | 8 | Arbovirus inh repeat=-6
Cc1cc2c(c(=O)o1)C(c1cccs1)C(C#N)=C(N)O2 (centres undefined) | -5% | -21 | 1.5 | 9 | -2
O=c1[nH]c(NC2CCCCC2)nnc1Cc1ccccc1 | 0% | -26 | . | -7 | 6 | Arbovirus inh repeat=-2
Cc1c(CCOC(=O)CC23CC4CC(CC(C4)C2)C3)sc[n+]1CC(=O)c1ccccc1 | -2% | . | 11 | 79 | -30
COc1cc(C(=O)Nc2ccc3c(c2)ncn3C(C)(C)C)cc(OC)c1OC | . | . | -1.3 | 14 | .
CCCCc1ccc(N2C(=O)[C@@H]3C(CC(N)=O)NC4(C(=O)Nc5ccc(F)cc54)[C@@H]3C2=O)cc1 (some centres undefined) | 33% | -21 | 1.1 | -16 | -5
COc1ccc(C(=O)Nc2cccc(C(=O)N/N=C/c3ccc(OC)cc3OC)c2)cc1 | . | . | 7.7 | 0 | .
Clc1ccccc1-c1nnc(-c2cccnc2)o1 | . | . | 0.9 | 2 | .
O=C(Nc1cc(Cl)ccc1Cl)c1ccc(-c2ccccc2)cc1 | -2% | -22 | 0.2 | 2 | 6
O=C(CSc1cccs1)Nc1cccc2ccccc12 | 60% | -14 | 2.3 | 56 | -6
CCOC(=O)c1ccc(N/C=C/C(=O)c2ccco2)cc1 | 77% | -19 | -12 | 98 | 5
O=C(CCC(=O)c1ccccc1)NCCOc1ccccc1 | 4% | . | 0.8 | -6 | 4
Cc1ccc2c(C)c(C(=O)Nc3nnc(C)s3)oc2c1 | 6% | -34 | 5.7 | 0 | -5
Cc1cc(NC(=O)CSc2nnc(-c3ccncc3)n2Cc2ccccc2)n(-c2ccccc2)n1 | 4% | . | -0.6 | -6 | .
Cc1ccccc1NC(=O)C(C)OC(=O)CCC(=O)N(CC(C)C)c1c(N)n(CC(C)C)c(=O)[nH]c1=O (centres undefined) | . | . | -1.4 | 2 | .
NNC(=O)c1nn(-c2ccc(Cl)cc2)cc1O | 48% | . | 1.2 | 84 | .
COc1ccc(NC(=O)Cn2c(C(C)C)nc(C)cc2=O)cc1Cl | -6% | . | -0.1 | -5 | -1
CN1CCN(/C=N/C2=C(C#N)C(c3ccccc3)C3=C(CC(C)(C)CC3=O)O2)CC1 (centres undefined) | 2% | -25 | 0.1 | 1 | 5
COc1ccccc1-n1c(CNC(=O)c2ccc(S(=O)(=O)N3CCOCC3)cc2)n[nH]c1=S | -1% | -21 | 6.9 | 3 | -4
CC(=O)Oc1ccc2c(=O)c(Oc3ccccc3)c(C)oc2c1OC(C)=O | -17% | -28 | -4.1 | -4 | -19
CCc1ccc(OCC(=O)N(CC)CC)cc1 | 7% | . | -1.1 | -5 | 2
COc1ccc(C(CNC(=O)CSc2ccccc2F)N2CCOCC2)cc1 (centres undefined) | . | . | 5.3 | -8 | .
O=C(CCCSc1nc2sc3c(c2c(=O)[nH]1)CCC3)NCCO | -2% | -4 | 2.2 | -7 | 8
CCC(C)(C)NC(=O)C1CCC(CNS(=O)(=O)c2cccc3nsnc23)CC1 (centres undefined) | . | . | -8.3 | -4 | .
Cc1cc(Br)cc2c(C(=O)Nc3c(C)n(C)n(-c4ccccc4)c3=O)cc(-c3cccs3)nc12 | 6% | -29 | -1.7 | 4 | -16
O=C(C(=O)N1CCCc2ccccc21)N1CCCc2ccccc21 | 13% | 3 | 1.8 | 5 | 4
O=C(CN1C(=O)NC2(CCCCCCC2)C1=O)N1CCc2ccccc2C1 | -10% | -113 | 3.2 | -6 | 4
CC(=O)NNc1cc(=O)c2c(=O)n(C)c(=O)n(C)c2[nH]1 | . | -23 | 1.2 | -6 | -7
COc1ccccc1N(Cc1cc(=O)[nH]c2ccccc12)C(=O)c1cccc([N+](=O)[O-])c1 | -8% | . | -4.6 | -2 | .
Cc1ncc(CO)c(/C=N/NC(=S)Nc2ccc(C(C)C)cc2)c1O | 0% | . | -5.5 | 6 | .
CNC(=S)NCCc1c[nH]c2ccc(OC)cc12 | 6% | . | 0.2 | -1 | -1

Brought forward from above: 4 entries, followed by the next part.
SMILES | Mtb H37Rv | YopH PTP inh | RecA intein inh | Mtb bLac sens | Arbovirus inh | others
CC(=O)NNc1cc(=O)c2c(=O)n(C)c(=O)n(C)c2[nH]1 | . | -23 | 1.2 | -6 | -7
COc1ccccc1N(Cc1cc(=O)[nH]c2ccccc12)C(=O)c1cccc([N+](=O)[O-])c1 | -8% | . | -4.6 | -2 | .
Cc1ncc(CO)c(/C=N/NC(=S)Nc2ccc(C(C)C)cc2)c1O | 0% | . | -5.5 | 6 | .
CNC(=S)NCCc1c[nH]c2ccc(OC)cc12 | 6% | . | 0.2 | -1 | -1
O=C(CN1CCN(Cc2ccc(Cl)cc2)CC1)N/N=C/c1ccccc1F | 5% | . | -0.4 | -10 | .
COc1cc(C(=O)NCCC(=O)NCCc2ccc(Cl)cc2)cc(OC)c1OC | -8% | -21 | -2.1 | ? | 2
CC1CCN(C(=O)c2scc3c2OCCO3)CC1 | 3% | -34 | -0.6 | -1 | 8
Cc1nc(S/C(C(=O)O)=C2/C(=O)Nc3ccccc32)n[nH]1 | -3% | . | -1.4 | 2 | .
Cc1ccn2cc(CSc3ccccc3)nc2c1 | 6% | -8 | -1.0 | 14 | -1
COCCNC(=O)c1cn(CCOC)c(=O)c2c1c1ccccc1n2C | . | . | -0.4 | -9 | .
COc1cc(NS(=O)(=O)c2ccc(NC(C)=O)cc2)cc(OC)c1 | -10% | -45 | -0.7 | 0 | 6
Cc1cccc(/C=C2/Sc3ccc(C(=O)N4CCOCC4)cc3NC2=O)c1 | . | . | -24 | 10 | .
COc1ccccc1NC(=O)CSc1nnnn1-c1ccccc1OC | . | . | 1.0 | -2 | .
NS(=O)(=O)c1cccc(NC(=O)COC(=O)/C(=C/c2cccs2)c2cccs2)c1 | 8% | -26 | 7.7 | 12 | 7
S=C1NC(c2ccccc2)=NCN1c1ccc(Cl)cc1 | . | 2 | 3.1 | -8 | -1

Screening data as filed in PubChem BioAssay.

These rows are one share of the data; the hit share may differ from the screen's.
